Source: PubChem
FGF22 binding – binders of human FGF22 protein, primary screen, FGF22 synaptogenesis inhibitor project, biophysical, thermal shift, single point; AID 651658, 2012; calls only at 9.99 µM; Fibroblast growth factor 22 (Homo sapiens), Q9HCT0; 340,000 compounds, 1.5% hits; recombinant FGF22 thermal shift, SYPRO orange fluorescence; percent of sucrose octasulfate shift, DMSO zero;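 active = melting point raised past a set limit in the mean and every replicate; three in four hits are not shown here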
Target sequence (Q9HCT0 whole entry, looked up): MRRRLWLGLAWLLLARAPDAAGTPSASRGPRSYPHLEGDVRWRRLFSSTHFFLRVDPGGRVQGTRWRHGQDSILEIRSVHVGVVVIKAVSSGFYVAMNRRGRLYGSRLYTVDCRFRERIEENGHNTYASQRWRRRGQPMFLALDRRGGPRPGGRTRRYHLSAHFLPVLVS
rRNA inh HTS – reduced GFP signal of wild-type E. coli, primary screen, bacterial rRNA inhibitor project, GFP/RFP fluorescence, OD600, single point. E. coli WT GFP vs humanized-ribosome RFP mutants, 24 h; active compounds read low; DMSO median 0, no signal -100. GFP signal change (wild-type ribosome), % (test concentration not listed). 350,000 compounds, 1.6% hits. AID 720706, 2013;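 active = significant combined selectivity score with lowered wild-type GFP, culture density cut under 30%, mutant RFP and density less affected; inactive = any of these conditions unmet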; also: one replicate is shown; some compounds called inactive have numbers as strong as hits
rRNA inh HTS OD600 – second read-out of rRNA inh HTS, no call of its own (marks repeat the call); OD600 change, %; measured here: OD600 growth;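 optical density of the mix in the first replicate; 0 = DMSO median and -100 = no signal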
rRNA inh HTS RFP – further read-out of rRNA inh HTS, marked with its call; RFP signal change, %; measured here: RFP humanized mutant strains;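 first replicate; 0 = DMSO median and -100 = no signal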
* hit, by the source's call; i = inactive; + = active, no number. An excerpt (hit frequency here may not be typical).

[1] COc1ccc2c3c(n(C)c2c1)[C@H](CO)N(C(=O)Nc1ccc(F)cc1)CC31CN(C(=O)Nc2c(C)noc2C)C1
[2] Cc1noc(C)c1S(=O)(=O)Nc1ccc2c(c1)CC(=O)N([C@H](C)CO)C[C@H](C)[C@H](CN(C)C(=O)Nc1ccccc1)O2
[3] Cc1ccc(S(=O)(=O)N(C)C[C@@H]2Oc3ccc(N(C)C)cc3CC(=O)N([C@H](C)CO)C[C@@H]2C)cc1
[4] C[C@H]1CN([C@@H](C)CO)C(=O)c2cc(C3=CCCC3)cnc2O[C@@H]1CN(C)C(=O)C1CCCCC1
[5] N#C[C@@H]1[C@@H](c2ccc(C#Cc3ccc(F)cc3)cc2)[C@H](CO)N1C(=O)C1CCCC1
[6] C[C@@H]1CN([C@H](C)CO)C(=O)c2cc(C#Cc3cccnc3)cnc2O[C@@H]1CN(C)Cc1ccccc1
[7] CN(C)C(=O)c1cccc(-c2ccc([C@@H]3[C@@H](CO)N4C(=O)CN(C(=O)C5CCCC5)C[C@H]34)cc2)c1
[8] CO[C@@H]1CN(C)C(=O)c2ccc(NS(=O)(=O)c3ccc(C)cc3)cc2OC[C@@H](C)N(C)C[C@H]1C

Compound	1	2	3	4	5	6	7	8
FGF22 binding	i	i	i	i	i	i	i	i
rRNA inh HTS	-3	0	-2	-5	0	0	2	3
rRNA inh HTS OD600	-1	-3	-4	-2	-1	5	13	7
rRNA inh HTS RFP	0.0	-0.2	0.5	0.2	0.0	-0.4	2.6	0.1

[9] CO[C@@H]1CN(C)C(=O)c2cc(NC(=O)Nc3c(C)noc3C)ccc2OC[C@@H](C)N(C)C[C@@H]1C
[10] O=C(C[C@H]1C[C@@H]2c3cc(NS(=O)(=O)c4ccc(F)cc4)ccc3O[C@@H]2[C@@H](CO)O1)NCC1CC1
[11] CO[C@@H]1CN(C)C(=O)c2cc(NC(=O)C3CCC3)ccc2OC[C@@H](C)N(Cc2nccs2)C[C@H]1C
[12] C[C@@H]1CN([C@H](C)CO)C(=O)Cc2cc(NC(=O)Nc3ccc(F)cc3)ccc2O[C@@H]1CN(C)S(=O)(=O)c1ccccc1
[13] CO[C@@H]1CN(C)C(=O)c2cc(NC(=O)c3ccc(F)cc3)ccc2OC[C@H](C)N(C(C)=O)C[C@@H]1C
[14] O=C(C[C@@H]1CC[C@H](NC(=O)c2cccc(F)c2)[C@H](CO)O1)NCc1ccc(Oc2ccccc2)cc1
[15] Cc1ccc(S(=O)(=O)N(C)C[C@H]2OCCCC[C@H](C)Oc3ccc(N(C)C)cc3C(=O)N([C@H](C)CO)C[C@@H]2C)cc1
[16] C[C@@H]1CCCCO[C@H](CN(C)Cc2ccncc2)[C@H](C)CN([C@H](C)CO)C(=O)c2cc(NS(=O)(=O)c3ccccc3)ccc2O1

Compound	9	10	11	12	13	14	15	16
FGF22 binding	i	i	i	i	i	i	i	i
rRNA inh HTS	2	-3	-3	-2	-2	1	-3	-4
rRNA inh HTS OD600	6	-2	2	-7	-3	-14	3	-6
rRNA inh HTS RFP	-0.9	-0.9	1.0	3.5	-2.1	2.6	-0.8	0.5

[17] Cc1noc(C)c1NC(=O)Nc1cccc2c1O[C@H](CN(C)Cc1ccncc1)[C@H](C)CN([C@H](C)CO)C2=O
[18] Cc1noc(C)c1S(=O)(=O)Nc1ccc2c(c1)CC(=O)N([C@@H](C)CO)C[C@@H](C)[C@H](CN(C)Cc1ccccc1)O2
[19] COc1ccccc1-c1cn(CC[C@H]2CC[C@@H](NC(=O)CCN3CCCCC3)[C@H](CO)O2)nn1
[20] Cc1noc(C)c1NC(=O)Nc1ccc2c(c1)C(=O)N([C@H](C)CO)C[C@@H](C)[C@@H](CN(C)C(=O)Nc1ccc(C(F)(F)F)cc1)O2
[21] CN(C)CC#Cc1ccc([C@@H]2[C@@H](CO)N3CCCCN(C(=O)NC4CCCC4)C[C@@H]23)cc1
[22] CCCNC(=O)N1CC2(CCN(S(=O)(=O)CC)CC2)c2c(n(C)c3cc(OC)ccc23)[C@H]1CO
[23] CC(=O)N(C)C[C@H]1OCc2ccccc2-c2c(n(C)c3ccccc23)C(=O)N([C@H](C)CO)C[C@H]1C
[24] CNC[C@@H]1Oc2ccc(NC(=O)NC(C)C)cc2CC(=O)N([C@@H](C)CO)C[C@H]1C

Compound	17	18	19	20	21	22	23	24
FGF22 binding	i	i	i	i	i	i	i	i
rRNA inh HTS	3	-2	0	-16	5	-2	0	7
rRNA inh HTS OD600	5	-8	5	-11	10	-3	3	7
rRNA inh HTS RFP	0.3	2.8	-0.8	3.6	4.5	-3.5	-1.1	0.7

[25] C[C@@H]1CN([C@@H](C)CO)C(=O)Cc2cc(NC(=O)CCCCCC(=O)Nc3ccccc3N)ccc2O[C@@H]1CN(C)C(=O)Nc1cccc2ccccc12
[26] COc1ccc(-c2ccc3c(c2)O[C@@H](CN(C)Cc2ccccc2C(=O)O)[C@H](C)CN([C@@H](C)CO)S3(=O)=O)cc1
[27] C[C@H](CO)N1C[C@H](C)[C@H](CN(C)C(=O)Nc2cccc3ccccc23)Oc2ncc(C#Cc3ccc(F)cc3)cc2C1=O
[28] O=C(C[C@@H]1CC[C@H]2[C@@H](COC[C@H](O)CN2C(=O)Nc2ccc(F)cc2)O1)NCC1CC1
[29] COc1ccc2c3c(n(C)c2c1)[C@H](CO)N(Cc1ccccc1F)CC31CN(C(=O)C2CC2)C1
[30] COc1ccc(CNC(=O)C[C@@H]2C[C@H]3c4cc(NC(=O)C5CCC5)ccc4O[C@H]3[C@H](CO)O2)cc1
[31] COc1ccc2c3c(n(C)c2c1)[C@H](CO)N(CC1CCCC1)CC31CCN(C(=O)CN(C)C)CC1
[32] O=C(N[C@H]1CC[C@@H](CCNS(=O)(=O)c2ccccc2)O[C@@H]1CO)c1cccnc1

Compound	25	26	27	28	29	30	31	32
FGF22 binding	i	i	i	i	i	i	i	i
rRNA inh HTS	1	-6	0	-1	-7	-3	2	2
rRNA inh HTS OD600	3	-16	3	20	-5	-8	0	-1
rRNA inh HTS RFP	-1.4	3.0	-2.1	-4.4	2.9	-2.7	-0.9	-2.6

[33] O=C(C[C@H]1C[C@@H]2c3cc(NS(=O)(=O)c4ccc(F)cc4)ccc3O[C@@H]2[C@H](CO)O1)NCCc1ccccc1
[34] C[C@@H]1CN([C@@H](C)CO)C(=O)Cc2cc(NC(=O)C3CC3)ccc2O[C@H]1CN(C)Cc1ccc(Cl)c(Cl)c1
[35] CN(C)C(=O)c1ccc(-c2ccccc2[C@@H]2[C@@H](C#N)N(C(=O)C3CCC3)[C@@H]2CO)cc1
[36] CC(C)CC#Cc1cnc2c(c1)C(=O)N([C@@H](C)CO)C[C@@H](C)[C@H](CN(C)C(=O)c1cnccn1)O2
[37] C[C@@H]1CN([C@@H](C)CO)C(=O)c2cc(C#CC3CC3)cnc2O[C@@H]1CN(C)S(=O)(=O)c1cccc(F)c1
[38] CC(C)C#Cc1ccc2c(c1)O[C@H](CN(C)S(=O)(=O)c1cn(C)cn1)[C@H](C)CN([C@H](C)CO)S2(=O)=O
[39] CO[C@@H]1CN(C)C(=O)c2cccc(C#N)c2OC[C@H]2O[C@H](CC[C@H]2OC)CCN(C)C(=O)[C@H]1C
[40] COCC(=O)N1C[C@H]2[C@@H](c3ccccc31)[C@@H](CO)N2Cc1ccc(OC)cc1

Compound	33	34	35	36	37	38	39	40
FGF22 binding	i	+	i	i	i	i	i	i
rRNA inh HTS	1	-8	1	2	4	2	2	-4
rRNA inh HTS OD600	-8	-40	14	15	3	-2	12	-8
rRNA inh HTS RFP	3.5	17	1.0	0.1	-2.0	-2.6	0.6	-0.3

[41] Cc1noc(C)c1NC(=O)Nc1ccc2c(c1)C(=O)N([C@@H](C)CO)C[C@@H](C)[C@H](CN(C)Cc1ccc3c(c1)OCO3)O2
[42] Cc1ccc(S(=O)(=O)N(C)C[C@@H]2Oc3ccc(NS(=O)(=O)c4cccs4)cc3CC(=O)N([C@@H](C)CO)C[C@@H]2C)cc1
[43] O=C(C[C@@H]1C[C@@H]2c3cc(NC(=O)c4cccnc4)ccc3O[C@@H]2[C@@H](CO)O1)NCCN1CCCCC1
[44] C[C@H]1CN([C@@H](C)CO)C(=O)c2cc(C#CC(C)(C)O)cnc2O[C@@H]1CN(C)Cc1cncnc1
[45] C[C@@H]1CN([C@H](C)CO)C(=O)c2cc(N(C)C)ccc2O[C@H]1CN(C)Cc1ccc(C(=O)Nc2ccccc2N)cc1
[46] C[C@@H](O)C#Cc1cnc2c(c1)C(=O)N([C@@H](C)CO)C[C@H](C)[C@H](CN(C)C(=O)CN1CCOCC1)O2
[47] CC(C)CC#Cc1cnc2c(c1)C(=O)N([C@H](C)CO)C[C@H](C)[C@H](CN(C)S(=O)(=O)c1cccs1)O2
[48] CC(C)CC#Cc1ccc2c(c1)O[C@H](CN(C)C(=O)C1CCC1)[C@H](C)CN([C@H](C)CO)S2(=O)=O

Compound	41	42	43	44	45	46	47	48
FGF22 binding	i	i	i	i	i	i	i	i
rRNA inh HTS	1	-1	1	1	-2	-2	6	-7
rRNA inh HTS OD600	-2	-8	3	-4	-4	5	-14	-12
rRNA inh HTS RFP	0.4	1.3	-1.7	-1.4	0.0	-1.2	-1.9	4.2

Profiles as entered above. Values in the order: FGF22 binding | rRNA inh HTS | rRNA inh HTS OD600 | rRNA inh HTS RFP
Results for C[C@@H](O)C#Cc1cnc2c(c1)C(=O)N([C@@H](C)CO)C[C@H](C)[C@H](CN(C)C(=O)CN1CCOCC1)O2 = i | -2 | 5 | -1.2
Results for O=C(C[C@@H]1C[C@@H]2c3cc(NC(=O)c4cccnc4)ccc3O[C@@H]2[C@@H](CO)O1)NCCN1CCCCC1 = i | 1 | 3 | -1.7
Results for CC(C)CC#Cc1cnc2c(c1)C(=O)N([C@H](C)CO)C[C@H](C)[C@H](CN(C)S(=O)(=O)c1cccs1)O2 = i | 6 | -14 | -1.9
Results for C[C@H]1CN([C@@H](C)CO)C(=O)c2cc(C#CC(C)(C)O)cnc2O[C@@H]1CN(C)Cc1cncnc1 = i | 1 | -4 | -1.4

(listing goes on)
[49] COCC(=O)N1C[C@H](C)[C@H](OC)CN(C)C(=O)c2cc(NC(=O)C3CCC3)ccc2OC[C@H]1C
[50] COc1ccc(CN(C)C[C@@H]2Oc3c(NC(=O)c4cc(C)nn4C)cccc3C(=O)N([C@H](C)CO)C[C@H]2C)cc1
[51] C[C@H]1CCCCO[C@H](CN(C)C(=O)c2ccncc2)[C@@H](C)CN([C@@H](C)CO)C(=O)c2cc(NS(=O)(=O)c3ccc(F)cc3)ccc2O1
[52] O=C(C[C@@H]1CC[C@@H]2[C@H](COC[C@@H](O)CN2C(=O)c2ccc3c(c2)OCO3)O1)NCCN1CCCCC1
[53] C[C@H]1CN([C@@H](C)CO)C(=O)c2cccc(NC(=O)C3CCCCC3)c2O[C@H]1CN(C)Cc1ccc2c(c1)OCO2
[54] C[C@H]1CN([C@@H](C)CO)C(=O)c2cccc(NC(=O)Nc3ccccc3)c2O[C@@H]1CN(C)S(=O)(=O)c1ccc(Cl)cc1
[55] C[C@H](CO)N1C[C@H](C)[C@H](CN(C)C)Oc2cc(-c3cccnc3)ccc2S1(=O)=O
[56] O=C(C[C@H]1CC[C@H]2[C@@H](COC[C@@H](O)CN2S(=O)(=O)c2cccc(Cl)c2)O1)NC1Cc2ccccc2C1

Compound	49	50	51	52	53	54	55	56
FGF22 binding	i	i	i	i	i	i	i	i
rRNA inh HTS	1	-6	-1	3	6	-3	-1	-5
rRNA inh HTS OD600	-5	-14	-1	-9	9	-10	2	-2
rRNA inh HTS RFP	-2.3	-1.9	0.3	-4.5	2.6	-0.6	0.1	1.9

[57] CC(=O)N(C)C[C@@H]1Oc2ncc(C#Cc3ccccc3)cc2C(=O)N([C@@H](C)CO)C[C@H]1C
[58] C[C@@H](O)C#Cc1ccc([C@H]2[C@H]3CN(C(=O)c4cccc(F)c4)CCCCN3[C@H]2CO)cc1
[59] CO[C@@H]1CC[C@H]2CCOc3c(C#N)cccc3C(=O)N(C)C[C@H](C)C(=O)N(C)C[C@H]1O2
[60] COc1ccc(S(=O)(=O)N(C)C[C@H]2OCCCC[C@H](C)Oc3ccc(NS(C)(=O)=O)cc3C(=O)N([C@@H](C)CO)C[C@@H]2C)cc1
[61] COCC(=O)N(C)C[C@H]1[C@H](c2ccccc2)[C@H](CO)N1C(=O)NC(C)C
[62] CCC(=O)N1[C@H](CO)[C@@H](c2ccccc2)C12CN(C(=O)c1cnccn1)C2
[63] COc1ccccc1-c1ccc2c(c1)O[C@@H](CN(C)C(=O)Nc1ccccc1)[C@H](C)CN([C@@H](C)CO)S2(=O)=O
[64] CO[C@H]1CN(C)C(=O)c2ccc(NC(=O)C3CCC3)cc2OC[C@H](C)N(C(=O)NC(C)C)C[C@H]1C
[65] COCC#Cc1ccc([C@@H]2[C@@H](CO)N3CCCCN(C(=O)Nc4cc(F)ccc4F)C[C@H]23)cc1
[66] CCC(=O)N1C[C@@H](C)[C@@H](OC)CN(C)C(=O)c2ccc(NC(=O)C3CC3)cc2OC[C@@H]1C

Compound	57	58	59	60	61	62	63	64	65	66
FGF22 binding	i	i	i	i	i	+	i	i	i	i
rRNA inh HTS	-1	1	2	-4	4	6	2	3	2	0
rRNA inh HTS OD600	4	10	9	-9	2	11	-19	3	2	3
rRNA inh HTS RFP	-0.1	-1.9	-3.8	3.6	-3.5	-0.8	7.7	0.4	0.7	0.9
